Bioassay records deposited in PubChem by several laboratories.
CSC inhib – blocks cancer stem cells. cancer stem cell-like cells viability, luminescence. inhibition, % at 7.5 µM. hit rate 1.1% among 300,000;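 active = mean at 75% or more and at least half the replicates too; tested in HMLE shEcad cells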;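 note: 0% = median of negative and 100% = median of positive control wells; the first replicate is given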
PABP FP inh – blocks human PABP binding to poly(A) RNA | P11940 | fluorescence polarization | inhibition, % at 35 µM | hit rate 1% among 290,000 | AID 2014;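 active = 50% or more with normal probe brightness, or confirmed in later tests; about a fifth of its hits are not listed in these tables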;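 note: calls also rest on retests at 20 µM and on dose response follow-up; controls were probe without protein and protein plus probe with vehicle; some compounds called inactive have numbers as strong as hits; many hits fall short of the cut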
Target sequence (P11940 whole entry, looked up): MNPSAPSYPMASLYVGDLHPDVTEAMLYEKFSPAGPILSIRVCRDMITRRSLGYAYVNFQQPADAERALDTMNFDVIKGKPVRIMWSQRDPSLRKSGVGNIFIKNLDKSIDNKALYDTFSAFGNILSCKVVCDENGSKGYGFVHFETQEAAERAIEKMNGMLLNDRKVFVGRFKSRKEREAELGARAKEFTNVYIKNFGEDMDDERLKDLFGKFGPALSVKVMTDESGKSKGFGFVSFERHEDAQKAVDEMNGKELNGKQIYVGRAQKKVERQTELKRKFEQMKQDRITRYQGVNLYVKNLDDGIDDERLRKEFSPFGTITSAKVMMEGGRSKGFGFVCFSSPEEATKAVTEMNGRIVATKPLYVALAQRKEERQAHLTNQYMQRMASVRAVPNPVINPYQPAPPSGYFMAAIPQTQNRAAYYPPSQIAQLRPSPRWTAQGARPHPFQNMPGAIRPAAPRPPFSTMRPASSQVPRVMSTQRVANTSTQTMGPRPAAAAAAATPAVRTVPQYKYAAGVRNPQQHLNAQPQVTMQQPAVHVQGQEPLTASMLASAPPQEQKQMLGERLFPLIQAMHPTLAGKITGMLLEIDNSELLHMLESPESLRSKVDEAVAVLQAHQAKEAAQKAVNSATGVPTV
Env fusion inh – HIV envelope-mediated fusion inhibition | HeLa-JRFL Env/CEM21 cell fusion, luciferase | inhibition, % at 12.3 µM | hit rate 1.1% among 360,000;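 active = mean replicate inhibition score of at least 50 and every replicate individually at or above 50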;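 note: 0% = plate neutral controls and 100% = maraviroc near 300 nM; one replicate is shown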
eIF4H inh – inhibitors of RNA binding by human eIF4H; Q15056; eIF4H fluorescence polarization binding assay; inhibition, % at 35 µM; hit rate 0.94% among 290,000;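 active = 50% or more with normal probe brightness, or confirmed in later tests; about a fifth of its hits are not listed in these tables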;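 note: calls also rest on retests at 20 µM and on dose response follow-up; 0% = protein and probe with vehicle and 100% = probe without protein; strong numbers were not always called active; many hits fall short of the cut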
Yeast UUG start – alters start codon recognition fidelity in yeast; S. cerevisiae UUG-firefly luciferase reporter, luminescence/redox ratio; activity score, % at 18.7 µM; hit rate 0.13% among 350,000;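 active = replicate mean at a twofold rise or more, about +100% in these data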;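 note: firefly luciferase made from a UUG start codon reports start codon fidelity; reporter light over untreated wells divided by growth signal over untreated wells; some hits fall short of that in this replicate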
Rce1 inh – yeast Ras-converting enzyme inhibition; Q03530; yeast membranes, quenched prenylated peptide cleavage fluorescence; calls only; hit rate 0.27% among 290,000;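 active = fall in fluorescence gain of 50% or more versus controls, with final raw signal at or below 3038400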;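 note: plate controls were neutral control wells for no effect and wells lacking membranes for full effect; tested at 10 µM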
Target sequence (Q03530 whole entry, looked up): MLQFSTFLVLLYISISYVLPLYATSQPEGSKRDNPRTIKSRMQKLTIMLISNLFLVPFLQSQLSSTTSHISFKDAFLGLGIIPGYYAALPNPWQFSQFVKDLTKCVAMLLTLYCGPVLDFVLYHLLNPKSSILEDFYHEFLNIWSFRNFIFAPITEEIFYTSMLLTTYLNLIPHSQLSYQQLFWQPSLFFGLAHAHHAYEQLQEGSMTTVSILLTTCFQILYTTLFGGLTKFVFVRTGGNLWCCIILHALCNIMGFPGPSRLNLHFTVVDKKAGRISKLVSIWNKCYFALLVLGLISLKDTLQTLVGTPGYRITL
MT1-MMP act inh – MT1-MMP (human) activation inhibition; hit rate 0.061% among 360,000; P50281; GFP/RFP ratio change, % at 20 µM; HT1080 RFP-PRO-GFP cells, GFP/RFP ratio fluorescence, overnight; percent of plate control window, DMSO zero;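 active = GFP/RFP ratio change of at least 30% with cell ATP level not reduced by more than half and red fluorescence within 50% of control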; note: strong numbers were not always called active
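Read-out: GFP/RFP fluorescence ratio; Test system: RFP-PRO-GFP reporter HT1080 cells; Compound dosing: single-point 20 µM compound, 1% DMSO; Times: overnight compound exposure at 37 °C.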
eIF4H inh retest – further read-out of eIF4H inh, marked with its call; inhibition, %; compound at 20 µM; confirmation average;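 mean of two retest wells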
PABP FP inh retest – second read-out of PABP FP inh, no call of its own (marks repeat the call); inhibition, %; compound at 20 µM; confirmation repeats;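 mean of two retest wells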
MT1-MMP act inh RFP – recorded beside MT1-MMP act inh, whose call it bears; RFP signal change, %; measured here: RFP expression control read;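 0 = vehicle wells; hits needed this value within 50% of zero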
The depositor's hits bear a star; i = inactive; nt = not tested or not shown; + = active, no number; & = joins results of further samples. Rows were taken by chance. About 3% of those tested had a hit in this group.

SMILES	CSC inhib	PABP FP inh	Env fusion inh	eIF4H inh	Yeast UUG start	Rce1 inh	MT1-MMP act inh	MT1-MMP act inh RFP	others
Cc1nc(Nc2cccc(F)c2)c2oc3ccccc3c2n1	14	-4	-16	-9	-13	i	-4	-3
CN(C)S(=O)(=O)c1cccc(NC(=O)C2Cc3ccccc3CN2C(=O)c2ccco2)c1 (centres undefined)	4	9	5	22	0	i	0	4
CCOCC(O)CS(=O)Cc1ccccc1 (centres undefined)	-9	-6	-67	-8	nt	i	4	6
CCN(CC(=O)Nc1c(F)cccc1F)C(=O)Cc1csc(-c2ccc(OC)c(OC)c2)n1	-12	nt	1	nt	12	i	-2	1
CCOC(=O)C1=C(C)N(c2ccccc2)C(=O)/C1=C\c1cccs1	-3	11	-89	7	-9	i	-3	2
O=S(=O)(NCCCc1ccccc1)c1ccc(Cl)cc1	-7	-4	nt	-6	-12	i	6	3
COc1ccc(C2C([N+](=O)[O-])=C(C)N(C)C(=O)N2C)cc1OC (centres undefined)	-8	-7	-16	-1	nt	i	-1	0
CN(C(=O)c1ccno1)c1nnc(-c2cccnc2)s1	-2	12	nt	-3	9	i	-6	3
O=C(CSc1ncn[nH]1)N/N=C/c1ccc(F)cc1	9	-8	1	-1	-10	i	-2	3
Cc1ccc(-c2csc(C3=C(O)CN(NC(=O)c4ccco4)C3=N)n2)cc1	-10	4	6	21	nt	i	-2	0
CCC(Oc1ccc(F)cc1)C(=O)N1CCCCCCC1 (centres undefined)	-2	-5	18	-3	-20	i	3	2
OCCNc1nc(Nc2ccccc2C(F)(F)F)nc(N2CCCC2)n1	4	nt	-18	nt	-11	i	3	-3
Cc1c(C#N)c(NC(=O)CCl)n(Cc2ccc(F)cc2)c1C	15	26	-36	13	nt	i	-1	0
COc1cc2c(cc1NC(=O)c1cncc(Br)c1)oc1ccccc12	0	-9	nt	-4	2	nt	3	-1
COc1ccc(C(=O)CC(=O)C(=O)NCCc2cccc(C)c2)cc1	3	-15	-66	-6	nt	i	-8	-5
CC(C)(C)C1C=C(Sc2ccccc2)C(=O)O1 (centres undefined)	-7	1	nt	-7	-12	i	17	-1
CCC(O)(CC)C(=O)N=Nc1c(O)[nH]c2ccccc12	-17	0	2	-2	nt	i	-3	1
O=C(NNC(=O)c1sccc1-n1cccc1)c1ccccc1	-4	-12	nt	-10	-18	i	-1	4
Cn1c(C(F)(F)F)nc2c(=O)oc3ccccc3c21	-13	3	nt	3	8	i	3	6
CCN1C(=O)c2ccccc2S(=O)c2ccc(C(=O)NCc3ccccn3)cc21 (centres undefined)	11	0	10	-9	-21	i	1	6

Brought forward from above: 5 entries, followed by the next part.
SMILES	CSC inhib	PABP FP inh	Env fusion inh	eIF4H inh	Yeast UUG start	Rce1 inh	MT1-MMP act inh	MT1-MMP act inh RFP	others
CC(C)(C)C1C=C(Sc2ccccc2)C(=O)O1 (centres undefined)	-7	1	nt	-7	-12	i	17	-1
CCC(O)(CC)C(=O)N=Nc1c(O)[nH]c2ccccc12	-17	0	2	-2	nt	i	-3	1
O=C(NNC(=O)c1sccc1-n1cccc1)c1ccccc1	-4	-12	nt	-10	-18	i	-1	4
Cn1c(C(F)(F)F)nc2c(=O)oc3ccccc3c21	-13	3	nt	3	8	i	3	6
CCN1C(=O)c2ccccc2S(=O)c2ccc(C(=O)NCc3ccccn3)cc21 (centres undefined)	11	0	10	-9	-21	i	1	6
C=C(C)Cn1c(C2CC(=O)N(c3ccccc3F)C2)nc2ccccc21 (centres undefined)	-13	-7	-97	-3	-8	i	1	2
Cc1nc2sc(C(c3ccco3)N3CCN(c4ccccc4F)CC3)c(O)n2n1 (centres undefined)	-6	2	9	5	-13	nt	4	3
S=C(NCc1ccco1)NCc1ccccc1Cl	-7	9	1	-9	-23	i	-4	1
O=C1c2ccccc2C(O)N1Cc1ccc2c(c1)OCO2 (centres undefined)	-6	7	-15	-12	-15	i	3	6
COc1cc(NC(=O)C2CCC(CNc3c(N4CCC(C)CC4)c(=O)c3=O)CC2)cc(OC)c1 (centres undefined)	5	29	25&-17	-8	-10	i	7&9	6&6
CC(C)NC(=O)c1ccccc1NC(=O)CCc1ccccc1	-11	-13	-14	-3	1	nt	-3	0
COc1cccc(-c2cccc(NC(=O)C3CCN(CCCn4cccn4)CC3)c2)c1	nt	nt	-28	nt	-8	nt	-1	3
CCc1ccc(NC(=O)c2cc(CC(C)C)on2)cc1	27	-5	0	-2	-18	i	3	0
O=c1onc(-c2c(F)cccc2F)n1-c1ccccc1Cl	nt	12	-11	-1	-12	i	-2	-1
CC(OC(=O)CN1C(=O)C2CC=CCC2C1=O)C(=O)Nc1ccc(F)cc1Cl (centres undefined)	-6	5	-18	4	-18	i	7	5
Cn1c(COc2ccc3ccccc3c2)nnc1SCC(=O)OC1CCCCC1	0	-15	nt	3	-24	i	7	-3
CCc1nc2ccc(C(=O)NCc3ccccc3OC)cn2c1N(C=O)CCC(C)C	nt	nt	4	nt	-9	nt	-8	2
CC(C)(C)C1CCC2(CC1)NC(CO)(CO)CO2 (centres undefined)	0	3	nt	-5	-12	i	-2	0
O=C(CCNC(=O)c1ccccc1)NCc1ccccc1F	9	nt	nt	nt	-6	nt	-1	-1
COc1cccc(NC(=O)NC2CCN(CC(=O)Nc3ccccc3[N+](=O)[O-])CC2)c1	-1	1	3	-7	-7	i	-2	-1
COc1ccc(-c2noc(CCC(=O)NCCN3CCN(c4ccccc4F)CC3)n2)cc1	-2	13	nt	0	1	i	5	-6
CSc1nc(C)cc(C)c1S(=O)(=O)c1ccccc1C	nt	4	nt	-2	-12	i	-2	-3
COC(=O)c1nn(-c2cccc(C)c2)c2nnc(Cc3ccc(C)cc3)c(=O)n12	nt	13	-1	0	nt	i	5	3
CCCCOc1ccc(C(=O)C(CN2CCOCC2)c2ccccc2)cc1 (centres undefined)	111*	4	nt	-3	6	i	-34	-46
COc1ccccc1C(=O)Nc1c[nH]c(=O)[nH]c1=O	nt	2	17	-4	-4	i	3	3

Compounds above containing a furan ring, fused or not, in the order listed:
SMILES	CSC inhib	PABP FP inh	Env fusion inh	eIF4H inh	Yeast UUG start	Rce1 inh	MT1-MMP act inh	MT1-MMP act inh RFP	others
Cc1nc(Nc2cccc(F)c2)c2oc3ccccc3c2n1	14	-4	-16	-9	-13	i	-4	-3
CN(C)S(=O)(=O)c1cccc(NC(=O)C2Cc3ccccc3CN2C(=O)c2ccco2)c1 (centres undefined)	4	9	5	22	0	i	0	4
Cc1ccc(-c2csc(C3=C(O)CN(NC(=O)c4ccco4)C3=N)n2)cc1	-10	4	6	21	nt	i	-2	0
COc1cc2c(cc1NC(=O)c1cncc(Br)c1)oc1ccccc12	0	-9	nt	-4	2	nt	3	-1
Cc1nc2sc(C(c3ccco3)N3CCN(c4ccccc4F)CC3)c(O)n2n1 (centres undefined)	-6	2	9	5	-13	nt	4	3
S=C(NCc1ccco1)NCc1ccccc1Cl	-7	9	1	-9	-23	i	-4	1

Carrying on:
SMILES	CSC inhib	PABP FP inh	Env fusion inh	eIF4H inh	Yeast UUG start	Rce1 inh	MT1-MMP act inh	MT1-MMP act inh RFP	others
Cc1ccc(NC(=O)CN(c2ccccc2)S(=O)(=O)N(C)C)cc1C	nt	-1	nt	-5	8	i	-1	-3
Cc1ccc(C)c(CC(=O)N2CCCCC2c2cc(C(=O)Nc3cccc(C#N)c3)no2)c1 (centres undefined)	nt	nt	-22	nt	11	nt	1	-5
CCc1ccccc1N(CC)C(=O)CCc1nc(-c2ccc(C)cc2)no1	19	9	nt	3	-8	i	1	-8
CC(=O)Nc1ccc(-c2ccnc3c2CC(C(=O)Nc2cccc(C(C)=O)c2)O3)cc1 (centres undefined)	nt	nt	-9	nt	6	nt	-13	-3
O=C(OCc1ccccc1)N1CCC2CC1c1ccc(Cl)cc12 (centres undefined)	nt	nt	-12	nt	11	nt	10	-7
CN1CCN(C(=O)/C=C/c2ccc(Cl)c(Cl)c2)CC1	0	-10	4	-8	-11	i	1	3
O=C(Nc1nnc(SCC(=O)N2CCCc3ccccc32)s1)c1cccc2ccccc12	23	2	19	3	nt	i	-3	0
CN1CCN(S(=O)(=O)c2ccc(N3CCN(S(=O)(=O)/C=C/c4ccccc4)CC3)nc2)CC1	68	-39	-27	10	3	i	2	-1
CCc1ccccc1Nc1nc(N)nc(CSCC(=O)c2cc(C)n(C)c2C)n1	-2	-4	-103	-2	-19	nt	2	5
COc1ccc2c(c1)c(C(O)CN1CCN(Cc3ccc4c(c3)OCO4)CC1)c(C)n2C (centres undefined)	3	17	nt	10	-11	i	-10	2
CCOC(=O)Cc1csc(NC(=O)c2ccc(S(=O)(=O)N3CCOCC3)cc2)n1	7	14	-4	-3	nt	i	2	-4
c1cnc(NCCNc2ncccn2)nc1	-14	20	10	-9	-10	i	2	2
COc1cccc(NC(=O)N(C)C[C@H]2OCc3cnnn3CCCC(=O)N([C@H](C)CO)C[C@@H]2C)c1	nt	nt	16	nt	5	nt	4	5
COC(=O)c1cccc(NC(=O)c2cc3sccc3n2C)c1	5	-6	nt	4	-3	i	2	1
O=C(O)c1ccc(NS(=O)(=O)c2ccc3c(c2)C2C=CCC2C(c2ccccc2F)N3)cc1 (centres undefined)	nt	81*	10	97	nt	nt	9	15	eIF4H inh retest=14;PABP FP inh retest=88*
c1ccc(-n2ncc3cccnc32)cc1	-2	-8	-2	0	nt	i	-1	3
CCOC(=O)c1c(NC(N)=O)sc(C)c1C	-6	4	-432	-10	-19	i	-2	-1
Cc1ccc(S(=O)(=O)N2CCN(C(=O)Cn3c(=O)cnc4ccccc43)CC2)c(C)c1	-3	nt	-7	nt	-6	nt	1	-5
Cc1nnc2ccc(N3CCN(C(=O)c4ccccc4)CC3)nn12	-15	-10	i	-7	-4	i	-1	2
O=C(NC1CCCCC1)Nn1c(-c2ccccc2)nc2ccccc2c1=O	-2	-4	nt	-4	nt	i	2	-2
Cc1noc(C)c1CSc1nc2ccccc2s1	40	-14	nt	-4	-7	i	1	-2
CCn1c(SCC(=O)NCCc2ccccc2)nnc1-c1ccco1	-5	-2	nt	6	9	i	1	6
COc1cc(CC(=O)NC2CCCc3ccccc32)cc(OC)c1OC (centres undefined)	nt	1	-1	0	-5	i	1	1
O=C(CN1CCCCCC1)N/N=C/c1cccc(Cl)c1	-8	5	nt	-3	nt	i	3	3
Cc1ccsc1/C=C1\Oc2cc(O)ccc2C1=O	nt	nt	-28	nt	-39	nt	-63	3
CC1CCN(S(=O)(=O)c2ccc(NC(=O)CN3CCOCC3)cc2)CC1	-2	0	9	-6	-16	i	4	1
O=C(Nc1ccccc1-c1nc2ccccc2[nH]1)c1ccc(N2C(=O)CCC2=O)cc1	7	-8	4	3	nt	+	-22	-6
CC(=O)Nc1ccc(-n2nnnc2SCC(=O)N2CCN(C(=O)c3ccco3)CC2)cc1	-12	28	-31	-6	-17	i	1	6
COC(=O)c1ccc(N2CCN(C(C)=O)CC2)c(NC(=O)c2cccnc2)c1	-9	-2	5	0	nt	i	0	-2
OCC[C@@H]1C[C@@H](O)[C@H](O)[C@]2(CCc3ccccc3CO2)O1	-1	-8	9	-10	-22	i	0	1
CCN(CC(=O)NCc1cccs1)C(=O)c1ccc(OC)c(OC)c1	-20	nt	3	nt	-8	i	nt	nt
